Assay outcomes (PubChem)
GIRK2 act: activators of human GIRK2 potassium channels; P48051; HEK293-GIRK2 thallium flux, Thallos fluorescence; calls only for hits at 25 µM; 63,000 compounds, 0.05% hits; AID 1259325;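 active = among the strongest 0.2% of first-round signals and kept after retests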;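 also: first round at about 10 µM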
Target sequence (P48051 whole entry, looked up): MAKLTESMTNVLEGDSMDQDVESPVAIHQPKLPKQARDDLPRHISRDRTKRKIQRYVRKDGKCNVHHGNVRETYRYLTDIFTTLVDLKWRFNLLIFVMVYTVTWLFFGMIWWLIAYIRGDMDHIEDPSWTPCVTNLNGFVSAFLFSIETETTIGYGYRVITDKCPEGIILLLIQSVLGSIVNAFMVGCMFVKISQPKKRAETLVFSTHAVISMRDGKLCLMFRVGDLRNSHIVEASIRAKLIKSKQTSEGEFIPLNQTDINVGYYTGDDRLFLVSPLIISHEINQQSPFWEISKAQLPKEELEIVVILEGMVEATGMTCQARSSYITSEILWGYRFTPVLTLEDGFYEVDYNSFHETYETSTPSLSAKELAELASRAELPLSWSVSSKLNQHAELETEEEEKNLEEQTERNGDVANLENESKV
Calls only; i = inactive. This is a subset (hit frequency here may not be typical).

SMILES | GIRK2 act
COc1ccc(C)cc1NC(=O)Cn1nc2cc(C)nc(Nc3ccc(F)cc3)n2c1=O | i
CCCCCCCCCCCCCCC(F)C(=O)O (centres undefined) | i
CCOc1ccc(-n2nnc(C(=O)NC(C)C)c2COC)cc1 | i
Cn1c(SCC(=O)NCc2ccco2)nc2c(-c3ccccc3)csc2c1=O | i
Cc1cccc(Nc2nc(C(=O)NC3CCN(Cc4ccccc4)CC3)cs2)n1 | i
CNC(=O)Cc1csc(Nc2ccc(S(C)(=O)=O)cc2)n1 | i
Cc1ccc2c(Nc3ccc(OC(F)(F)F)cc3)c(C(=O)N3CCOCC3)cnc2n1 | i
CCOC(=O)c1oc2ccccc2c1NC(=O)C1CCN(S(=O)(=O)c2ccc(F)cc2)CC1 | i
CC(=O)Cn1c(=O)c2c(nc3n(-c4ccc(F)cc4)c(-c4ccccc4)cn23)n(C)c1=O | i
CS(=O)(=O)NCCN1CCN(c2ccccc2)CC1 | i
Cn1ccnc1SCC1CCN(C(=O)/C=C/c2ccccc2)CC1 | i
O=C(Nc1ccc(F)cc1F)Nc1nccn(-c2ccc(F)cc2)c1=O | i
CCc1ccc(OC)c(S(=O)(=O)Nc2ccc3c(c2)N(S(=O)(=O)CC)CCC3)c1 | i
COc1ccc(S(=O)(=O)NCc2ccco2)cc1C(C)(C)C | i
COc1ccc(-c2nnc(SCC(=O)Nc3ccccc3C)n2N)cc1OC | i
O=C(CN1CC(c2nc(-c3ccco3)no2)C1)Nc1ccc2c(c1)OCCO2 | i
COc1cccc(NC(=O)Nc2ccc(CC(N)=O)cc2)c1OC | i
COc1ccc(CCNC(=O)CC23CC4CC(CC(C4)C2)C3)cc1OC | i
Cc1cc(CCNC(=O)CCC(=O)c2ccccc2)on1 | i
CS(=O)(=O)c1ccc(N2CCN(c3cccc(Cl)c3)CC2)c([N+](=O)[O-])c1 | i
Cc1cc(NC(=O)c2ccc(S(=O)(=O)N3CCCC3)cc2)n(-c2nc3c(F)cccc3s2)n1 | i
Cc1nnsc1C(=O)NCCCn1ccnc1-c1ccccc1 | i
COc1ccc2c(c1)c(CC(=O)NCCS(C)(=O)=O)c(C)n2C(=O)c1ccc(Cl)cc1 | i
O=C(Cn1nc2c(c1NC(=O)c1ccccc1F)CSC2)NCCc1ccccc1 | i
COc1ccc(NC(=O)Cn2nc(NC(C)C)c(-c3nc(-c4ccc(Cl)cc4)no3)c2N)cc1 | i

The last three records of the section above lead into the next:
SMILES | GIRK2 act
COc1ccc2c(c1)c(CC(=O)NCCS(C)(=O)=O)c(C)n2C(=O)c1ccc(Cl)cc1 | i
O=C(Cn1nc2c(c1NC(=O)c1ccccc1F)CSC2)NCCc1ccccc1 | i
COc1ccc(NC(=O)Cn2nc(NC(C)C)c(-c3nc(-c4ccc(Cl)cc4)no3)c2N)cc1 | i
O=C(c1cnccn1)N1CCC2(CC1)OCCCO2 | i
CC(O)(CNC(=O)C(=O)NCc1ccccc1Cl)c1ccc2c(c1)OCO2 (centres undefined) | i
Cc1csc(C(=O)NCCc2csc(-n3nc(C)cc3C)n2)c1 | i
CCOC(=O)c1sc(NC(=O)CSc2nc3sc(C(C)=O)c(C)c3c(=O)[nH]2)nc1C | i
Cc1ccc2c(Nc3ccc(Br)cc3)c(C(=O)N3CCOCC3)cnc2n1 | i
Cn1nc(CNC(=O)Nc2cccs2)cc1-c1ccncc1 | i
CCOc1ccccc1NC(=O)CN1CCc2nc(NC(=O)c3cccs3)sc2C1 | i
O=C(NCCCS(=O)(=O)N1CCc2ccccc2C1)c1ccc(Br)o1 | i
COc1ccc(-c2ccc(N3CCN(S(=O)(=O)/C=C\c4ccccc4)CC3)nn2)cc1 | i
COc1ccc(-c2nc(-c3nnn(Cc4cccc(F)c4)c3C)no2)cc1OC | i
CC(=O)c1ccc(S(=O)(=O)NCCNC(=O)c2ccc(NC(=O)C(C)C)cc2)cc1 | i
COc1ccc(Br)c(C(=O)NCc2ccc(C(=O)c3cccs3)s2)c1 | i
COC(=O)Nc1ccc(S(=O)(=O)N2CCCC(C(=O)O)C2)cc1 (centres undefined) | i
CNC(=O)c1cc2c(=O)n3ccccc3nc2n1CCCOC | i
Cc1cc(-c2nnc(NC(=O)c3ccc4nsnc4c3)o2)c(C)o1 | i
O=C(NCc1cnn2ccccc12)C1CC1 | i
COc1ccc(-c2nnc3ccc(OCCNC(=O)c4cc(OC)cc(OC)c4)nn23)cc1 | i
Cc1cc(-c2nnc(NC(=O)c3cccc(S(=O)(=O)C(C)C)c3)o2)c(C)o1 | i
CCn1c(SCC(=O)NCc2ccc(F)cc2)nnc1-c1cn(C)nc1OC | i
CCOc1ccc(C2C(C(=O)c3cc4ccccc4o3)=C(O)C(=O)N2c2cc(C)on2)cc1 (centres undefined) | i
CCOCC(=O)NCC1(O)CCCC1 | i
Cc1cc(OCC(=O)NCCn2nc(-c3cccnc3)ccc2=O)ccc1Cl | i
COc1cccc(-c2nc(Cn3c(=O)n(CC4CCCO4)c(=O)c4ccccc43)c(C)o2)c1OC (centres undefined) | i
O=C(Nc1ccc2c(c1)Cc1ccccc1-2)c1cnn2c1OCCC2 | i
Cc1cc(CCNC(=O)c2cc3ccccc3oc2=O)on1 | i

Retrieved one by one from the list above, 4 records:
SMILES | GIRK2 act
Cc1cc(OCC(=O)NCCn2nc(-c3cccnc3)ccc2=O)ccc1Cl | i
Cn1nc(CNC(=O)Nc2cccs2)cc1-c1ccncc1 | i
Cc1cc(CCNC(=O)c2cc3ccccc3oc2=O)on1 | i
O=C(NCCCS(=O)(=O)N1CCc2ccccc2C1)c1ccc(Br)o1 | i

Next results follow:
SMILES | GIRK2 act
O=C(Cc1c(F)cccc1Cl)Nc1ccc(-c2ccn[nH]2)cc1 | i
O=C(c1cccc(-n2cnnn2)c1)N1CCN(c2cc(-c3ccccc3)ncn2)CC1 | i
Cc1cn2c3c(=O)n(C/C=C/c4ccccc4)c(=O)n(C)c3nc2n1CCN(C)C | i
COc1ccc(C)cc1NC(=O)Cn1cccc(-c2nc(-c3ccccc3C)no2)c1=O | i
O=C(Nc1cnc(-n2ccnc2)nc1)c1ccc2c(c1)OCO2 | i
CC1CCN(Cc2nc3c(c(=O)n(C)c(=O)n3C)n2C(C)C)CC1 | i
O=C(Cn1cnc(-c2noc(-c3cccnc3)n2)c1)Nc1ccc(F)cc1 | i
CCn1c(SCC(=O)Nc2ccccc2Cl)nc2c3cc(OC)ccc3n(C)c2c1=O | i
Cc1[nH]c(=O)[nH]c(=O)c1CCc1nnc(SCc2nc3ccccc3c(=O)[nH]2)o1 | i
Cn1c(C2CCN(S(C)(=O)=O)CC2)nn(CC(=O)NCCc2ccccc2)c1=O | i
COc1ccc(CN2CCc3nc(SCC(=O)Nc4cc(OC)cc(OC)c4)[nH]c(=O)c3C2)cc1 | i
Cc1cc(C(=O)NCC(O)c2ccc3c(c2)CCO3)c(C)o1 (centres undefined) | i
CCN(CC)CCN(C(=O)c1ccnn1CC)c1nc2c(C)c(Cl)ccc2s1 | i
CCCn1c(=O)[nH]c2c(C(=O)N3CCC(Cc4ccccc4)CC3)snc2c1=O | i
COc1ccc(-c2cc3c(=O)n(CC(=O)N4CCN(c5ccc(F)cc5)CC4)ccn3n2)cc1OC | i
CC(C)(Oc1ccc(Cl)cc1)C(=O)Nc1ccc(-n2nnc(C(=O)NC3CC3)n2)cc1 | i
CC(C)(C)NC(=O)Cn1nc2c(-c3nc(-c4ccccc4)no3)cccn2c1=O | i
O=C(NC1CCN(C(=O)c2cn[nH]c2-c2ccc(Cl)cc2)CC1)c1ccccc1 | i
COCC1CCCN(C(=O)NC2CCCCC2)C1 (centres undefined) | i
Cc1noc(C)c1CN1CCN(C(=O)CSc2ccc(F)cc2)CC1 | i
CC(Cc1ccco1)NC(=O)c1ccc(OC(F)(F)F)cc1 (centres undefined) | i
Cc1cc(C(=O)N2CCC(c3nnc(C4CC4)o3)CC2)c(C)o1 | i
Cc1cc(C)n(-c2ccc(C(=O)NCc3ccccc3F)nn2)n1 | i
CC12CCC(C(=O)Nc3ccncc3)(CC1=O)C2(C)C (centres undefined) | i
COc1ccc(NC(=O)N2CCOC(c3ccccc3)C2)c(OC)c1 (centres undefined) | i

Further entries follow:
SMILES | GIRK2 act
CCS(=O)(=O)N1CCCc2ccc(NS(=O)(=O)c3cc(C)c(C)cc3OC)cc21 | i
O=C(Nc1ccc2c(c1)OCO2)N1CCC2(CC1)OCCCO2 | i
CC(Cc1cccs1)NC(=O)C(=O)Nc1cc(Cl)ccc1C#N (centres undefined) | i
CCOCCn1c(=O)c2c(nc(-n3nc(CC)cc3CC)n2C)n(C)c1=O | i
Cn1nc(C2CCN(C(=O)CCC(=O)c3ccccc3)CC2)n(-c2ccccc2)c1=O | i
COc1ccc(-c2noc(Cn3nc(-c4ccc(C)cc4)ccc3=O)n2)cc1 | i
O=C(CN1CN(c2cccc(F)c2)c2ncccc2S1(=O)=O)Nc1ccc(Cl)cc1 | i
O=S(=O)(NCCc1ccoc1)c1ccc(N2CCCCS2(=O)=O)cc1 | i
C=C1C(=O)O[C@H]2[C@H]1[C@@H](OC(=O)C(C)(O)CCl)[C@@H](OC(C)=O)/C(C(=O)OC)=C\CC[C@@]1(C)O[C@H]21 (some centres undefined) | i
CC(=O)c1cccc(NC(=O)CCC2NC(=O)c3ccccc3NC2=O)c1 (centres undefined) | i
O=C(CSc1nc2c(oc3ccccc32)c(=O)n1Cc1ccco1)Nc1ccccc1C(F)(F)F | i
Cc1cc(C)n(-c2nc3c(c(=O)n(CC(N)=O)c(=O)n3C)n2CCC(C)C)n1 | i
O=C(NCC1(c2cccs2)CCCCC1)c1ccncc1 | i
COc1ccc(CNC(=O)N2CC(c3nc(-c4cnccn4)no3)C2)cc1OC | i
O=C(CCCn1nc(-c2ccco2)ccc1=O)Nc1cccc(C(F)(F)F)c1 | i
COc1ccccc1-c1c(C(F)(F)F)oc2c3c(ccc2c1=O)OCN(Cc1cccs1)C3 | i
CS(=O)(=O)NCC1(c2ccccc2)CCOCC1 | i
O=C(NCc1ccc(F)cc1F)c1c(O)c2cccnc2n(-c2ccccc2)c1=O | i
CCOC(=O)CCC(=O)Nc1ccc(CC(=O)NCc2cccs2)cc1 | i
CC(C)Oc1ccc(C(=O)NCCc2nc(C3CC3)cc(C(F)(F)F)n2)cc1 | i
Cc1nc(-c2cccs2)sc1CNC(=O)c1ccccn1 | i
Cn1c(=O)c2cc(C(=O)N3CCOCC3)n(Cc3ccccc3)c2n(C)c1=O | i
C=C1CC2[C@@]3(C)CCC(=O)C(C)(C)C3=C(O)C(=O)[C@@]2(C)[C@]2(C(=O)OC)C(=O)C(C)OC(=O)[C@@]12C (some centres undefined) | i
CCN1CCN(c2nc3ccccc3nc2C(C#N)S(=O)(=O)c2cccs2)CC1 (centres undefined) | i
COc1ccc(-c2noc(-c3c(SC)nn(CC(=O)Nc4ccc(C)c(F)c4)c3N)n2)cc1OC | i

By substructure, those above with a CF3 group (6)
SMILES | GIRK2 act
Cc1ccc2c(Nc3ccc(OC(F)(F)F)cc3)c(C(=O)N3CCOCC3)cnc2n1 | i
CC(Cc1ccco1)NC(=O)c1ccc(OC(F)(F)F)cc1 (centres undefined) | i
O=C(CSc1nc2c(oc3ccccc32)c(=O)n1Cc1ccco1)Nc1ccccc1C(F)(F)F | i
O=C(CCCn1nc(-c2ccco2)ccc1=O)Nc1cccc(C(F)(F)F)c1 | i
COc1ccccc1-c1c(C(F)(F)F)oc2c3c(ccc2c1=O)OCN(Cc1cccs1)C3 | i
CC(C)Oc1ccc(C(=O)NCCc2nc(C3CC3)cc(C(F)(F)F)n2)cc1 | i

Back to the main list, repeating the 3 entries before the break.
SMILES | GIRK2 act
C=C1CC2[C@@]3(C)CCC(=O)C(C)(C)C3=C(O)C(=O)[C@@]2(C)[C@]2(C(=O)OC)C(=O)C(C)OC(=O)[C@@]12C (some centres undefined) | i
CCN1CCN(c2nc3ccccc3nc2C(C#N)S(=O)(=O)c2cccs2)CC1 (centres undefined) | i
COc1ccc(-c2noc(-c3c(SC)nn(CC(=O)Nc4ccc(C)c(F)c4)c3N)n2)cc1OC | i
COc1cc(C)c(Cl)cc1S(=O)(=O)N1CCN(C)CC1 | i
O=C(Cc1ccc(F)cc1)NC1CCN(C(=O)c2cc(-c3ccc(F)cc3)n[nH]2)CC1 | i
Cc1csc2nc(CSc3ccc(Cl)cc3)c(Br)n12 | i
Cc1ccc(C(=O)Cn2nc(-c3ccccc3)c3sc(N4CCCCC4)nc3c2=O)cc1 | i
C#CCOCC1CCN(C(=O)c2cc(-c3ccccc3)nn2C)CC1 | i
COc1ccc(-c2c(C)nc(N)nc2-c2ccc(OCc3ccc(C)cc3)cc2O)cc1OC | i
O=C(NCc1ccc2c(c1)OCO2)c1ccc(-n2cccn2)nn1 | i
CC(C)N(Cc1ccccc1)C(=O)CN1C(=O)c2ccccc2S1(=O)=O | i
COc1ccc(C(=O)N2CCC3(CC2)NC(=O)c2cccc(Cl)c2N3)cc1OC | i
COc1ccc(-c2coc3c4c(ccc3c2=O)OCN(C2CCS(=O)(=O)C2)C4)cc1 (centres undefined) | i
COc1ccc(Br)c(C(=O)N(CCc2cccs2)Cc2ccco2)c1 | i
COc1ccc(C(O)=C2C(=O)C(=O)N(c3cc(C)on3)C2c2ccccc2F)cc1C (centres undefined) | i
Cc1cc(C(O)CCNC(=O)c2ccccc2Br)c(C)o1 (centres undefined) | i
O=C(Cn1nc2c3cc(-c4ccccc4)nn3ccn2c1=O)N1CCCc2ccccc21 | i
O=C(NCCN1CCN(c2ccccc2)CC1)C1CCCC1 | i
CCc1cccc(OCC(O)Cn2c(NCCc3ccccc3)nc3c2c(=O)n(C)c(=O)n3C)c1 (centres undefined) | i
CC1=C(C(=S)Nc2ccccc2)C(c2ccccc2)NC(=O)N1 (centres undefined) | i
COc1ccc(OC)c(C2C(C(=O)c3sc(C)nc3C)=C(O)C(=O)N2CCN(C)C)c1 (centres undefined) | i
CC(C)S(=O)(=O)c1ccc(CC(=O)NCC2CCN(C(=O)c3ccoc3)CC2)cc1 | i
COC(=O)N1CCN(CCNC(=O)Cc2ccc(SC(C)C)cc2)CC1 | i
COc1cccc(CN(c2cc(C)cc(C)c2)S(=O)(=O)c2cccn3c(C)nnc23)c1 | i
NC(=O)CSc1nnc(N2CCN(C(=O)c3cccc4ccccc34)CC2)s1 | i
CC(C)C1CCC(C(=O)N[C@H](Cc2ccccc2)C(=O)O)CC1 (some centres undefined) | i
C=CC1(C)CC2=CCC3C(C)(C(=O)O)CCCC3(C)C2CC1OC(C)=O (centres undefined) | i
Cn1nc(CNC(=O)C2COc3ccccc3O2)c2c1CCCC2 (centres undefined) | i
